MARV entry inh – Marburg virus entry inhibition; 300,000 compounds, 1.8% hits; Marburg virus pseudotyped entry inhibition, cell reporter; control for the full effect not named in the record; about a third of the inactives were read at about 46 µM; Potency, µM (doses to about 37.8 µM), for inactives: at the highest dose activity change, negative = inhibition, hits mostly inhibitors; AID 540276; active = well fitted inhibition curve with a large enough effect; inconclusive = small, poorly fitted or top-dose-only effect, or effect the other way; inactive = flat fitted curve, though single readings scatter; tested in HEK293 cells; about a fifth of its hits are not listed in these tables; further: on the % scale 0 is the no-effect control and ±100 the full control effect; luciferase read-out
2A StopGo – FMDV 2A StopGo reporter, luciferase signal. Potency, µM (top dose mostly 57.9 µM), for inactives: top-dose signal change, negative = less light. AID 1159524. 410,000 compounds, 1.2% hits. human cells with a luciferase reporter of 2A StopGo recoding; control for the full effect not named in the record; active = well fitted falling curve with a large enough effect; inconclusive = small, poorly fitted or top-dose-only effect; inactive = no such curve, though single readings can be large or run the other way; tested in HEK293T cells; further: on the % scale 0 is the no-effect control and ±100 the full control effect; nearly all actives have a fitted effect of over 45% in size; luciferase light after 4 h
SARS PLP yeast – inhibitors of SARS-CoV papain-like protease in yeast. S. cerevisiae expressing SARS-CoV PLpro, growth rescue; control for the full effect not named in the record. Potency, µM (doses to about 32.9 µM), without a hit: at the top dose activity, positive = growth rescue. 330,000 compounds, 0.19% hits. AID 485353; further: 0% is about no effect; nearly all actives have a fitted effect of over 55% in size; growth read by luminescence after 48 h
RE007 growth inh – less growth of the S. pombe RE007 Vpr strain | S. pombe RE007 Vpr strain, BacTiter-Glo ATP luminescence, 24 h; control for the full effect not named in the record | Potency, µM (doses to about 92.2 µM), inactives show at the highest dose activity change, negative = less growth | 360,000 compounds, 0.21% hits | AID 651644; active = well fitted falling curve with a large enough effect; inconclusive = small, poorly fitted or top-dose-only effect; inactive = no such curve, though single readings can be large or run the other way;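 further: on the % scale 0 is the no-effect control and ±100 the full control effect; nearly all actives have a fitted effect of over 50% in size; the assay follows cell death caused by Vpr and the record does not say whether a fall means rescue or toxicity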
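Fission yeast RE007 carrying one integrated HIV-1 vpr copy, seeded at OD 0.01 in PMG+AL medium with 23 nL pinned compound. Grown 24 h at 30 degrees; viability read by BacTiter-Glo luminescence after 5 min.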
Cruzain inh noDet – cruzain (T. cruzi) inhibition without detergent; Potency, µM, inactives show max response, negative = inhibition, most hits filed as inhibitors; purified cruzain, Z-FR-AMC fluorescence, no detergent; AID 1476; 200,000 compounds, 2.3% hits; P25779; active means well fitted curve in the direction sought with a large enough effect; inconclusive means small, poorly fitted or top-dose-only effect, or another doubt; inactive means no such curve, though single readings can be large; an effect the other way counts as inactive or inconclusive;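 further: plate controls were enzyme without inhibitor for no effect and buffer without enzyme for full effect; nearly all actives have a fitted effect of over 40% in size; top concentration of the series not given in the record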
Target sequence (P25779 123-467 limits assumed): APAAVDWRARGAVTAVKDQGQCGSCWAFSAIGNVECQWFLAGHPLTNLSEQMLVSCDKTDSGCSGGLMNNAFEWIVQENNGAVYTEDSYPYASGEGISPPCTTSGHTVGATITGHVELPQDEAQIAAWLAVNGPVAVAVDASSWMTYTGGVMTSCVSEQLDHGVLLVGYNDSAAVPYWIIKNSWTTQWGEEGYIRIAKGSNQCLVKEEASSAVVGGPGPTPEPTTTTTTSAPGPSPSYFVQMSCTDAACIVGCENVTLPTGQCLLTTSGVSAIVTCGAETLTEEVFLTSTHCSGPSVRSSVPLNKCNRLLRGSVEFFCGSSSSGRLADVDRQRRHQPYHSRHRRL
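Detergent-free condition (0.00005% Triton X-100) in acetate buffer pH 5.5 with DTT. 1.5 nM enzyme and compound were pre-mixed 15 min, then 2 uM Z-FR-AMC substrate added; reaction progress from fluorescence change between first and third reads (60 s).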
Cruzain inh Det – blocks cruzain activity in presence of Triton detergent; purified cruzain, Z-FR-AMC fluorescence, 0.01% Triton; Potency, µM, for inactives: max response, negative = inhibition, actives largely listed as inhibitors; 200,000 compounds, 0.43% hits; active means well fitted curve in the direction sought with a large enough effect; inconclusive means small, poorly fitted or top-dose-only effect, or another doubt; inactive means no such curve, though single readings can be large; an effect the other way counts as inactive or inconclusive;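 further: plate controls were neutral wells for no effect and buffer without enzyme for full effect; nearly all actives have a fitted effect of over 40% in size; top concentration of the series not given in the record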
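Read-out: AMC fluorescence (360 nm excitation, 450 nm emission), four reads over 2 min, first-to-third difference used. Conditions: cruzain 1.5 nM, Z-FR-AMC 2 uM, pH 5.5 acetate, 5 mM DTT, 0.01% Triton X-100.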
NS1 function inh – inhibitors of influenza NS1 protein function | S. cerevisiae slowed by influenza A NS1, growth recovery by OD600 | Potency, µM (titrated, usually from 46.1 µM), inactives show at the top dose activity, positive = more growth | 270,000 compounds, 0.4% hits | AID 2326; further: actives are rising curves; nearly all actives have a fitted effect of over 50% in size
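In this qHTS, NS1 from influenza A is expressed in budding yeast, where it slows growth. Cells are switched from glucose to 2% galactose medium (pH 6.0, -URA), treated with compound, and growth recovery is read at OD600.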
Lassa entry inh – inhibitors of Lassa virus binding or cell entry; Lassa virus pseudotype entry inhibition, cell reporter; control for the full effect not named in the record; Potency, µM (series often up to 37.9 µM), for inactives: at the highest dose activity change, negative = inhibition, usual class: inhibitors; 300,000 compounds, 1.2% hits; AID 540256; active means well fitted inhibition curve with a large enough effect; inconclusive means small, poorly fitted or top-dose-only effect, or effect the other way; inactive means flat fitted curve, though single readings scatter; tested in HEK293 cells; further: on the % scale 0 is the no-effect control and ±100 the full control effect; nearly all actives have a fitted effect of over 50% in size; luciferase read-out
Starred values were filed as active, the others as inactive; ? = inconclusive; / = no result given; & = joins results of further samples; [ ] = dose if it differs, or a comment. Unless noted, the call rests on the fitted dose curve; in most records, active means well fitted rising curve with a large enough effect; inconclusive means small, poorly fitted or top-dose-only effect; inactive means no such curve, though single readings can be large or run the other way. Potency means the concentration at half of the fitted maximal effect. Compounds were not picked by outcome; 4.7% or so of the library scored in one or more.

SMILES	MARV entry inh	2A StopGo	SARS PLP yeast	RE007 growth inh	Cruzain inh noDet	Cruzain inh Det	NS1 function inh	Lassa entry inh
CC(=O)N1CCCN(C(=O)c2ccc3nc(Cc4cccc(Cl)c4)oc3c2)CC1	13%	-4%	1%	0%	/	/	-1%	8%
O=C(NC1CCCCC1)n1c(=O)oc2cc(S(=O)(=O)N3CCCCC3)ccc21	10%	1%	-1%	-1%	4%	-1.0%	0%	4%
CCc1nonc1NC(=O)c1oc2ccc(F)cc2c1C	14%[46.1 µM]	15%&33%	7%	2%	-15%	-0.1%	0%	?
CCc1cc(CN2CCOCC2)c(NC(=O)c2ccccc2)s1	-10%	13%	-5%	-10%	/	/	/	8%
COc1ccccc1NS(=O)(=O)c1cc(NC(=O)c2ccccc2C)ccc1N1CCOCC1	?	67%[activator]	/	-19%	/	/	/	?
O=C(Nc1ccncc1)c1ccc(Br)cc1	/	-9%	-7%	-21%	/	/	-31%	/
O=C(CC(NS(=O)(=O)c1ccc(Cl)cc1)c1ccco1)NC1CCCC1 (stereo not given)	-1%	-16%	0%	-10%	-3%	-1.7%	-3%	-1%
CC(C)CNC(=O)CSc1nnc2ccccn12	6%[46.1 µM]	12%	2%	2%	/	/	/	-12%[46.1 µM]
O=S(=O)(NC1CC2CCC1C2)c1ccc2c(c1)OCCO2 (stereo not given)	-9%[46.1 µM]	68%[activator]	-15%	-8%	4%	0.2%	-185%	4%
CC(=O)NCCNC(=O)CCCc1nnc2n(CC(C)C)c(=O)c3sccc3n12	/	7%	/	/	15%	0.4%	/	26%[46.1 µM]
O=C(O)CC/C(=N/NC(=O)c1cn(-c2ccccc2)nc1-c1ccccc1)C(=O)O	-38%	11%	-25%	15%	-9%	-2.5%	?	-17%
Cc1cc(Br)ccc1NC(=O)CN(C)C(=O)COc1cccc2c1OC(C)(C)C2	?	-16%	-1%	-5%	/	/	/	?
O=C(NCc1cccs1)c1cc(-c2ccc(O)cc2)on1	/	89%[activator]	0%	12%	/	/	0%	/
CCOC(=O)CC1=NN(c2ccccc2)C(=O)/C1=C\c1ccc(OC)cc1OC	?	0%	5%	11%	10%	-0.5%	11%	?
COc1cccc(CN2CCC(C(=O)Nc3ccc(-c4cccc(C)c4)cc3)CC2)c1O	/	?	1%	1%	/	/	1%	/
O=C1C2CC=CCC2C(=O)N1n1cnnc1 (stereo not given)	/	-15%	-1%	6%	/	/	5%	/
CCCSc1nnc(Cn2c(=O)sc3ccccc32)n1C	/	1%	29%	4%	-16%	-4.5%	8%	/
CS(=O)(=O)N1CCN(C(=O)Cc2ccccc2)CC1	-7%	-9%	-4%	-4%	-4%	5.0%	-1%	6%
O=C(CNS(=O)(=O)c1ccc(Br)s1)N1CCCC1	?	42%[activator]	-1%	-4%	-1%	-2.1%	10%	16%
O=c1ccc(S(=O)(=O)N2CCCC2)cn1Cc1nc(-c2ccc(F)cc2)no1	-19%	?	4%	2%	/	/	/	-14%
Cc1ccc(C2Nc3ccccc3NC3=C2C(=O)CC(C)(C)C3)c(O)c1 (stereo not given)	4%[46.1 µM]	0%	-5%	4%	/	/	5%	7%[46.1 µM]
C=CCn1c(CCNC(=O)c2ccccc2F)nnc1SCc1nc2ccccc2c(=O)[nH]1	-23%	-24%	1%	4%	1%	-2.2%	2%	-15%
CCCC(=O)N(Cc1cc(=O)[nH]c2ccccc12)c1ccccc1OC	-10%[46.1 µM]	-24%	-2%	0%	/	/	7%	5%[46.1 µM]
Cc1ccc(NC(=O)CCC(=O)OCCCC(F)(F)C(F)(F)F)cc1	26%[46.1 µM]	-8%	0%	-19%	11%	-3.3%	-8%	12%
Nn1c(Cc2ccc(Br)cc2)n[nH]c1=S	?	-15%	0%	4%	/	/	/	-14%[46.1 µM]
Cc1cc(C)c(S(=O)(=O)Nc2ccc3c(c2)CCC3)c(C)c1	7.3µM*	80%[activator]	-98%	-19%	-8%	-8.2%	-60%	?
O=C(COc1cc(F)ccc1[N+](=O)[O-])Nc1ccc(N2CCCCC2)cc1	?	?	/	-4%	/	/	/	1%
O=C(Cn1cc(S(=O)(=O)Cc2cccc([N+](=O)[O-])c2)c2ccccc21)N1CCOCC1	23%	-17%	-3%	-10%	/	/	1%	6%
O=C(CC1(CC2=NS(=O)(=O)c3ccccc3N2)CCCC1)NCCc1ccccc1	/	-2%	-13%	-18%	/	/	-51%	/
O=C1c2ccccc2C(=O)N1C1C(=O)N2CCSC12C(=O)OCc1ccccc1 (stereo not given)	10%	-17%	/	9%	/	/	/	17%
N#Cc1cc2ccccc2nc1SCc1cccnc1	-1%	-10%	-6%	-8%	-2%	-8.7%	-52%	-25%[14.3 µM]
COc1ccccc1CCNC1CCCC(C)C1 (stereo not given)	?	-20%	-9%	33%	3%	-2.8%	-7%	1%
COc1ccccc1OCCNC(=O)CCC(=O)N1CCOCC1	0%	-8%	-1%	4%	/	/	/	6%
COc1ccc(S(=O)(=O)N2CCCCC2)cc1C(=O)NC1CCS(=O)(=O)C1 (stereo not given)	/	-6%&-7%	/	-6%	13%	0.0%	/	-17%[46.1 µM]
COc1cc(/C=C2\S/C(=N/S(=O)(=O)c3ccccc3)NC2=O)c([N+](=O)[O-])cc1OC	3%	20%	4%	12%	9%	-15%	?	12%
NS(=O)(=O)c1ccc(CCNC(=O)CNCCc2ccccc2)cc1	-2%[46.1 µM]	-2%	-1%	8%	/	/	0%	-19%[46.1 µM]
COc1cc(-c2nc3sccn3c2Nc2cccc(C)c2)ccc1O	26%[46.1 µM]	-1%	/	/	-14%	-14%	/	13%[46.1 µM]
O=C(Nc1ccccc1C(=O)O)c1cccc(NC(=O)c2ccccc2Cl)c1	/	28%	-3%	-13%	/	/	2%	/
O=C(O)c1cc(NC(=O)C2CCCO2)cc(NC(=O)C2CCCO2)c1 (stereo not given)	5%	/	-1%	-7%	2%	-2.5%	3%	24%
CCOC(=O)Cc1csc(NC(=O)c2c(-c3ccccc3)noc2C)n1	7%	-9%	1%	-17%	-4%	-1.6%	-5%	2%
Cc1ccc(C2N(c3ccccn3)C(=O)C3CCCN32)o1 (stereo not given)	-21%	-9%	0%	5%	/	/	/	16%
COc1ccc(C(=O)N/N=C/c2ccc(SC)cc2)cc1	?	16%	-12%	18%	-19%	-5.2%	0%	?
COc1ccc(-c2csc(N(C)C(=O)c3ccco3)n2)cc1	10%	48%[activator]	-1%	-21%	/	/	-12%	-13%
COc1ccc(Nc2nnc(SCC(=O)c3cc(C)n(CC4CCCO4)c3C)s2)cc1 (stereo not given)	?	-14%	-1%	?	-14%	-2.2%	?	-7%
Cc1nc2ccccc2c2oc(C(=O)NCCCN3CCCC3=O)cc12	-17%	-22%	-3%	4%	-10%	-0.4%	5%	-13%
C/C(=N\NS(=O)(=O)c1ccc(Cl)c([N+](=O)[O-])c1)c1ccc(C)o1	-14%	2%	4%	11%	-15%	-3.7%	3%	-3%
CC(=O)c1cccc(N(CC(=O)NC2CCCCC2)C(=O)c2csnn2)c1	25%[46.1 µM]	-20%	2%	13%	/	/	8%	-2%[46.1 µM]
CCN(CC)CCNc1ncnc2c1sc1nc(N3CCOCC3)c3c(c12)CCCC3	?	3%	1%	2%	/	/	3%	?
Cc1cc2ccccc2c(=O)n1CC(=O)Nc1ccc2c(c1)OCCO2	/	-13%	-2%	/	-6%	-1.2%	-11%	/
CCOc1ccc(C(=O)Nc2nnc(NC(=S)Nc3ccccc3)s2)cc1	-4%	8%	0%	-19%	/	/	/	-8%
CCOCCCNC(=O)c1ccc(NC(C)=O)cc1	1%[46.1 µM]	23%	14%	10%	18%	0.4%	8%	2%
N#CC1=C(N)Oc2c(ccc3ccccc23)C1c1cccs1 (stereo not given)	?	-16%	-6%	-8%	?	-10.0%	-4%	?
COc1ccc(-c2cc(C#N)nc(N3CCN(c4ccccc4)CC3)n2)cc1	?	?	-27%	0%	?	1.6%	-11%	-26%
CCCCNC(=O)c1ccccc1C(=O)NC1(C(=O)NCCCC)CCCC1	3%	-11%	/	-7%	/	/	/	-3%
C#Cc1ccc([C@H]2C=C(C(=O)N3CCOCC3)O[C@@H](OCC)[C@@H]2CCCO)cc1	/	-13%	-1%	5%	/	/	-1%	/
COc1ccc(NC(=O)Cn2c(=O)c3ccccc3n3nncc23)cc1Cl	22%[46.1 µM]	-19%	/	/	-2%	0.5%	/	1%[46.1 µM]
Cc1ccc2nsnc2c1N(S(C)(=O)=O)S(C)(=O)=O	53%	-19%	6%	10%	-3%	-1.6%	1%	8%
COCCN(Cc1cc2cc3c(cc2nc1Cl)OCO3)C(=O)c1cccc(C)c1	/	0%	-2%	10%	/	/	6%	/
Cn1cc(CCC(=O)N2CCCC(Nc3ccc(F)cc3)C2)cn1 (stereo not given)	/	8%	4%	-20%	/	/	20%	/
CC(C)(C)n1ncc2c(=O)n(CC(=O)Nc3ccc4c(c3)OCCO4)cnc21	21%	-14%	4%	-15%	-2%	-1.5%	-9%	6%

(cont.)
SMILES	MARV entry inh	2A StopGo	SARS PLP yeast	RE007 growth inh	Cruzain inh noDet	Cruzain inh Det	NS1 function inh	Lassa entry inh
CC(=O)c1c(C)[nH]c(C(=O)Nc2cccc(S(=O)(=O)N3CCCC3)c2)c1C	2%	14%	3%	19%	/	/	/	0%
CCOC(=O)CSc1nc2ccc(NC(=O)c3ccc(C)cc3)cc2s1	5%[46.1 µM]	33%[activator]	/	/	-11%	-11%	/	19%[46.1 µM]
Cc1ccc(/C=C2\SC(=S)N(CCC(=O)NNS(=O)(=O)c3ccccc3)C2=O)cc1	-9%[46.1 µM]	8%	-1%	-13%	/	/	-6%	-14%
O=C(Nc1cccc(C(F)(F)F)c1)C1CCCN(c2ncccn2)C1 (stereo not given)	-3%	4%	-17%	-1%	-6%	-3.8%	-39%	-8%[14.3 µM]
COc1ccc(C(=O)Nc2ccccc2[N+](=O)[O-])cc1S(=O)(=O)N1CCOCC1	-9%	0%	2%	-2%	/	/	-16%	20%

Screening results from PubChem.
